Compound activity (PubChem BioAssay)
Cruzain inh noDet: inhibitors of Trypanosoma cruzi cruzain without detergent; purified cruzain, Z-FR-AMC fluorescence, no detergent; Potency, µM, for the others: max response, negative = inhibition, usual class: inhibitors; hit rate 2.3% among 200,000; active = well fitted curve in the direction sought with a large enough effect; inconclusive = small, poorly fitted or top-dose-only effect, or another doubt; inactive = no such curve, though single readings can be large; an effect the other way counts as inactive or inconclusive;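 note: plate controls were enzyme without inhibitor for no effect and buffer without enzyme for full effect; nearly all actives have a fitted effect of over 40% in size; top concentration of the series not given in the record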
Target sequence (P25779 123-467 limits assumed): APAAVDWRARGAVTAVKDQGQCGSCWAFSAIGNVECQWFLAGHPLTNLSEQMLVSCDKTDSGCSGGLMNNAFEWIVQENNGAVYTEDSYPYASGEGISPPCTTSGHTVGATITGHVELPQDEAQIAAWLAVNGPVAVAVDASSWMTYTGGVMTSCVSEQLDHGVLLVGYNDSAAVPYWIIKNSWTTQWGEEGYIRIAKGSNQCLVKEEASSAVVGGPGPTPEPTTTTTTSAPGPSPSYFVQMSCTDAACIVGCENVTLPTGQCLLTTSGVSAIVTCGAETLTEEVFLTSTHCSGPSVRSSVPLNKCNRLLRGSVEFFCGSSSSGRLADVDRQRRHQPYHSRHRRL
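Detergent-free condition (0.00005% Triton X-100) in acetate buffer pH 5.5 with DTT. 1.5 nM enzyme and compound were pre-mixed 15 min, then 2 uM Z-FR-AMC substrate added; reaction progress from fluorescence change between first and third reads (60 s).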
Cruzain Triton: inhibitors of Trypanosoma cruzi cruzain with detergent; hit rate 0.43% among 200,000; purified cruzain, Z-FR-AMC fluorescence, 0.01% Triton; P25779; Potency, µM, for inactives: max response, negative = inhibition, hits mostly inhibitors; AID 1478; active = well fitted curve in the direction sought with a large enough effect; inconclusive = small, poorly fitted or top-dose-only effect, or another doubt; inactive = no such curve, though single readings can be large; an effect the other way counts as inactive or inconclusive;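 note: plate controls were neutral wells for no effect and buffer without enzyme for full effect; nearly all actives have a fitted effect of over 40% in size; top concentration of the series not given in the record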
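Enzyme 1.5 nM, Z-FR-AMC 2 uM, NaOAc 100 mM pH 5.5, DTT 5 mM, Triton X-100 0.01%; 15 min RT compound preincubation; kinetic ex360/em450, 60 s delta.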
SARS PLP yeast: blocks SARS-CoV papain-like protease in a yeast assay | S. cerevisiae expressing SARS-CoV PLpro, growth rescue; control for the full effect not named in the record | Potency, µM (series often up to 32.9 µM), for the others: at the top dose activity, positive = growth rescue | hit rate 0.19% among 330,000 | AID 485353; note: 0% is about no effect; nearly all actives have a fitted effect of over 55% in size; growth read by luminescence after 48 h
NS1 inh: inhibitors of influenza NS1 protein function | hit rate 0.4% among 270,000 | Potency, µM (doses to about 46.1 µM), for inactives: at the highest dose activity, positive = more growth | S. cerevisiae slowed by influenza A NS1, growth recovery by OD600; note: actives are rising curves; nearly all actives have a fitted effect of over 50% in size
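In this qHTS, NS1 from influenza A is expressed in budding yeast, where it slows growth. Cells are switched from glucose to 2% galactose medium (pH 6.0, -URA), treated with compound, and growth recovery is read at OD600.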
LASV entry inh: blocks Lassa virus binding to or entry into cells. Lassa virus pseudotype entry inhibition, cell reporter; control for the full effect not named in the record. AID 540256. hit rate 1.2% among 300,000. Potency, µM (doses to about 37.9 µM), without a hit: at the highest dose activity change, negative = inhibition, hits mostly inhibitors; active means well fitted inhibition curve with a large enough effect; inconclusive means small, poorly fitted or top-dose-only effect, or effect the other way; inactive means flat fitted curve, though single readings scatter; tested in HEK293 cells; note: % is set by controls: 0 for no effect and ±100 for the full control effect; nearly all actives have a fitted effect of over 50% in size; luciferase read-out
RE007 growth inh: less growth of the S. pombe RE007 Vpr strain; Potency, µM (doses to about 92.2 µM), without a hit: at the highest dose activity change, negative = less growth; hit rate 0.21% among 360,000; S. pombe RE007 Vpr strain, BacTiter-Glo ATP luminescence, 24 h; control for the full effect not named in the record; active = well fitted falling curve with a large enough effect; inconclusive = small, poorly fitted or top-dose-only effect; inactive = no such curve, though single readings can be large or run the other way;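 note: % is set by controls: 0 for no effect and ±100 for the full control effect; nearly all actives have a fitted effect of over 50% in size; the assay follows cell death caused by Vpr and the record does not say whether a fall means rescue or toxicity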
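Fission yeast RE007 carrying one integrated HIV-1 vpr copy, seeded at OD 0.01 in PMG+AL medium with 23 nL pinned compound. Grown 24 h at 30 degrees; viability read by BacTiter-Glo luminescence after 5 min.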
StopGo reporter: lowers the luciferase signal of an FMDV 2A StopGo reporter; human cells with a luciferase reporter of 2A StopGo recoding; control for the full effect not named in the record; Potency, µM (doses to about 57.9 µM), for the others: at the top dose signal change, negative = less light; hit rate 1.2% among 410,000; AID 1159524; active = well fitted falling curve with a large enough effect; inconclusive = small, poorly fitted or top-dose-only effect; inactive = no such curve, though single readings can be large or run the other way; tested in HEK293T cells; note: % is set by controls: 0 for no effect and ±100 for the full control effect; nearly all actives have a fitted effect of over 45% in size; luciferase light after 4 h
MARV entry inh: Marburg virus entry inhibition | Marburg virus pseudotyped entry inhibition, cell reporter; control for the full effect not named in the record; about a third of the inactives were read at about 46 µM | Potency, µM (highest dose often 37.8 µM), for inactives: at the top dose activity change, negative = inhibition, actives largely listed as inhibitors | hit rate 1.8% among 300,000; active = well fitted inhibition curve with a large enough effect; inconclusive = small, poorly fitted or top-dose-only effect, or effect the other way; inactive = flat fitted curve, though single readings scatter; tested in HEK293 cells; about a fifth of its hits are not listed in these tables; note: % is set by controls: 0 for no effect and ±100 for the full control effect; luciferase read-out
Numbers without * were called inactive; u = inconclusive; x = not tested or not shown; [ ] = another dose, or the depositor's remark. Unless noted, calls come from the whole dose curve; as a rule, active means well fitted rising curve with a large enough effect; inconclusive means small, poorly fitted or top-dose-only effect; inactive means no such curve, though single readings can be large or run the other way. Potency is the fitted concentration of half-maximal effect.

SMILES	Cruzain inh noDet	Cruzain Triton	SARS PLP yeast	NS1 inh	LASV entry inh	RE007 growth inh	StopGo reporter	MARV entry inh
CS(=O)(=O)N1CCCC(C(=O)Nc2ccc(F)cc2)C1 (configuration not stated)	x	x	6%	12%	8%	9%	-14%	2%
CN1CCC(C2(O)c3ccccc3CCc3ccccc32)CC1	2%	2.8%	-2%	20%	-2%	5%	6%	18µM*
COc1cccc(CC2(CO)CCCN(Cc3ccc(CN4CCCCC4)s3)C2)c1 (configuration not stated)	x	x	0%	-1%	x	-17%	2%	x
O=C(CN1CCCC1)NCc1ccccc1	x	x	2%	8%	x	4%	7%	x
O=C(Nc1nc2ccccc2[nH]1)c1cc(F)cc(F)c1	x	x	-10%	-7%	9%[46.1 µM]	6%	18%	u
O=C1CN(c2ccc(F)cc2)C(=S)N1c1ccccc1	x	x	-1%	-1%	u	-16%	-1%	-11%
N#Cc1c(C(F)(F)F)cc(-c2ccco2)nc1SCc1ccccn1	13%	u	x	-31%	-11%	1%	x	-10%
O=C(Nc1ccc2nsnc2c1)c1cccs1	2%	4.1%	-3%	-2%	-1%	-15%	30%[activator]	u
COc1ccc(OC)c(Nc2nc(-c3ccncc3)nc3ccccc23)c1	x	x	-3%	-5%	u	-3%	u	u
O=C(N/N=C/c1ccncc1)c1nn(Cc2ccccc2)c(=O)c2ccccc12	x	x	-2%	x	-24%	-9%	-2%	9%[46.1 µM]
O=C(CSc1nnc2ccccn12)NNC(=O)c1ccc(F)cc1	x	x	4%	x	11%	2%	-3%	13%
CCOc1ccc(CNC(=O)c2cccn2-c2nnc(N3CCCCC3)s2)cc1OC	-10%	-2.3%	x	x	0%[46.1 µM]	x	-27%	x
CCOc1ccc(-c2cc(C(=O)NCC3CCCO3)c3ccccc3n2)cc1 (configuration not stated)	12%	-12%	-13%	5%	-15%	3%	-11%	u
Cc1ccc(-n2[nH]c(C)c(C=NC34CN5CN(CN(C5)C3)C4)c2=O)cc1C	-7%	-2.8%	x	-24%	-15%	u	-4%	13%
CCOC(=O)c1ccc(NC(=O)CSc2nnc(CNC(=O)c3ccccc3F)o2)cc1	-7%	-3.0%	0%	5%	u	29%	-36%	u
Cc1cccc(N(C)C(CNS(=O)(=O)c2ccccc2)c2ccccc2)c1 (configuration not stated)	8%	-8.9%	x	x	-21%[46.1 µM]	x	28%	u
CCC(C)(C(=O)NC1CCCC1)N(Cc1cccs1)C(=O)Cc1cccs1 (configuration not stated)	-3%	8.1%	-4%	-7%	-3%	6%	-22%	-1%
CC1=C(c2ccc(Cl)cc2)S(=O)(=O)N=C1N1CCN(c2cc(C)ccc2C)CC1	u	-2.7%	x	x	u	x	0%	-17%[46.1 µM]
COc1ccc(CNCc2cc3c(C(C)(C)C)nn(-c4ccccc4)c3[nH]c2=O)cc1	3%	-3.8%	1%	-9%	-24%	12%	x	u
Cc1ccc(C)c(S(=O)(=O)N2CCN(Cc3ccc(O)c4ncccc34)CC2)c1	x	x	u	x	9.2µM*	2%	-5%	7.3µM*

Looked up one by one from above (three):
SMILES	Cruzain inh noDet	Cruzain Triton	SARS PLP yeast	NS1 inh	LASV entry inh	RE007 growth inh	StopGo reporter	MARV entry inh
O=C(CN1CCCC1)NCc1ccccc1	x	x	2%	8%	x	4%	7%	x
O=C(Nc1ccc2nsnc2c1)c1cccs1	2%	4.1%	-3%	-2%	-1%	-15%	30%[activator]	u
CCOc1ccc(CNC(=O)c2cccn2-c2nnc(N3CCCCC3)s2)cc1OC	-10%	-2.3%	x	x	0%[46.1 µM]	x	-27%	x

Going on with the list.
SMILES	Cruzain inh noDet	Cruzain Triton	SARS PLP yeast	NS1 inh	LASV entry inh	RE007 growth inh	StopGo reporter	MARV entry inh
COC(=O)c1c(N)n(-c2ccc(OC)c(Cl)c2)c2nc3ccccc3nc12	-3%	0.0%	x	x	23%[46.1 µM]	x	-21%	x
COc1cccc(N2C(=NC(=O)CCC3CCCC3)SC3CS(=O)(=O)CC32)c1 (configuration not stated)	x	x	5%	0%	19%[46.1 µM]	13%	-1%	17%[46.1 µM]
Cn1c(SCC(N)=O)nnc1C1CCN(C(=O)NC2CCCCC2)CC1	-5%	2.0%	-2%	-10%	2%	10%	6%	1%[46.1 µM]
CCOC(=O)c1c(C)oc2nc(C)nc(NCCc3ccc(OC)c(OC)c3)c12	-6%	1.4%	x	x	-2%[46.1 µM]	x	-12%	x
CCOc1ccc(S(=O)(=O)N2CCCC(C(=O)NC3CCCC3)C2)cc1 (configuration not stated)	x	x	-4%	3%	13%	-16%	-27%	-16%
CCN(C(=S)NCCOC)c1cccc2ccccc12	x	x	0%	3%	-6%	9%	4%	-7%[46.1 µM]
COc1cc(OC)cc(Oc2ccc(S(=O)(=O)N3CCCCC3)cc2[N+](=O)[O-])c1	x	x	0%	19%	u	4%	-12%	u
O=C1CC(N2CCN(c3ccccn3)CC2)C(=O)N1CC(c1ccccc1)c1ccccc1 (configuration not stated)	u	-9.5%	-113%	-65%	u	44%	u	u
CCOCCCNC(=O)C(=O)Nc1c2c(nn1-c1ccccc1)CSC2	u	-2.9%	x	x	u	x	-13%	x
Cc1ccc(S(=O)(=O)CCC(=O)OCC(=O)N(C)Cc2ccccc2)cc1	x	x	x	x	3%	-2%	-9%	28%
Cc1ccc(S(=O)(=O)NCC(=O)N(CC(=O)NC2CCCC2)c2ccc3c(c2)OCCO3)cc1	-4%	4.5%	7%	-1%	-16%	-7%	40%[activator]	-7%
CCn1cc(C(=O)N(CCCN2CCOCC2)Cc2ccco2)c(=O)c2ccc(C)nc21	-6%	-11%	-4%	-2%	-6%	-4%	2%	14%[46.1 µM]
S=c1[nH]cc(-c2ccc(Cl)cc2)n1Cc1ccccc1	x	x	1%	-1%	x	-6%	12%	x
Cn1c(=O)c2c([nH]c(=O)n2C)n(Cc2ccccc2)c1=O	x	x	x	x	16%	40%	3%	5%[46.1 µM]
Cc1cc(C)c2[nH]c(=O)c(CN(CC3CCCO3)C(=O)c3cnccn3)cc2c1 (configuration not stated)	6%	1.5%	-3%	-5%	18%	15%	-25%	-25%
CCCOc1ccc(C2c3c(oc4ccccc4c3=O)C(=O)N2c2ccc(C)cn2)cc1OCC (configuration not stated)	3%	-0.1%	x	x	u	x	-11%	4%[46.1 µM]
Cc1ccc(NC(=O)COC(=O)C2C3CC4OC(=O)C2C4C3)cc1Cl (configuration not stated)	x	x	0%	3%	-20%	6%	-1%	3%
COc1ccc(N2CCN(S(=O)(=O)c3ccc4c(c3)NC(=O)C(C)S4)CC2)cc1 (configuration not stated)	x	x	9%	16%	u	3%	-28%	u
Cc1cc(Cl)c(S(=O)(=O)Nc2ccc3c(c2)OCO3)cc1OCC(N)=O	-3%	4.0%	-1%	-4%	-14%	0%	44%[activator]	1%
CCc1sc(C(=O)Nc2ncccc2O)cc1C	x	x	-6%	-22%	u	-30%	-54%	6.3µM*
CCS(=O)(=O)N1Cc2ccccc2CC1C(=O)Nc1nc2ccc(C)cc2s1 (configuration not stated)	13µM*	-6.8%	19%	16%	u	-14%	18%	u
Cc1csc(NC(=O)C2C3C=CC(O3)C2C(=O)O)n1 (configuration not stated)	-3%	-1.9%	-2%	-4%[9.22 µM]	u	-14%	0%	4%
NC(=O)CSc1nnc(-c2cccnc2)n1CCc1ccccc1	0%	1.0%	-7%	-4%	-8%	-2%	-4%	9%
O=C(c1cc(COc2cccc(C(F)(F)F)c2)on1)N1C[C@H]2CC[C@H]1C2	x	x	-6%	-77%	-9%	6%	1%	u
CN(CC(=O)Nc1ccc(F)cc1)C(=O)c1ccc(-c2ccc(Cl)cc2)o1	x	x	-12%	-54%	u	-2%	-15%	u
CC12CCC(=O)N1c1ccccc1C(=O)N2c1ccccc1 (configuration not stated)	-4%	-1.1%	-2%	7%	1%	9%	x	2%
Clc1cc2cccnc2c2ccccc12	-14%	-9.3%	-25%	-2%	-1%	0%	-18%	9%
COc1cc2c(cc1OC)C1c3ccc(OC)c(OC)c3OCC1(O)C2 (configuration not stated)	x	x	x	x	-18%[46.1 µM]	2%	-19%	10%[46.1 µM]
O=C1c2cccc3c([N+](=O)[O-])ccc(c23)C(=O)N1CC1CCCO1 (configuration not stated)	x	x	-3%	x	u	u	-13%	23µM*
CC(C)(C)c1cc(Cl)ccc1OCCOCCN1CCCC1	x	x	-4%	0%	u	1%	0%	8.9µM*
Cc1oc(-c2ccc3c(c2)OCCO3)cc1C(=O)O	-1%	0.7%	-11%	-188%	1.1µM*	u	2.2µM*	u
CCOc1ccc(Oc2ccc(Cl)cc2NC(=O)C2=COCCO2)cc1	x	x	-17%	x	u	7%	u	-1%
CC1C=CCC2C(=O)N(c3cccc(C(=O)NCCc4ccccc4)c3)C(=O)C12 (configuration not stated)	x	x	-2%	-1%	x	9%	-12%	x
Cc1ccc(C(=O)C(C)OC(=O)Cn2c(C)csc2=O)cc1 (configuration not stated)	x	x	9%	10%	x	17%	6%	x
Cc1cc(/C=C2/C(=N)N3C(c4ccccc4)=CSC3=NC2=O)c(C)n1-c1ccc(Cl)cc1	x	x	x	x	23%	8%	-16%	-13%[46.1 µM]
N#CN=C1SCCS1	-1%	2.6%	-2%	-12%	8%	-24%	-8%	u
Cc1ccccc1Cn1ccn(-c2ccc(F)c(F)c2)c(=O)c1=O	-3%	-2.8%	x	x	0%[46.1 µM]	x	-9%	x
CCOc1ccc(CCNC(=O)CSc2nn(-c3ccc(C)c(Cl)c3)c(=S)s2)cc1OCC	u	-10%	19%	0%	-7%	11%	0%	6%
CCOc1ccc(CNC(=O)C2Cc3cc(S(=O)(=O)N4CCCC4)ccc3N2C(C)=O)cc1 (configuration not stated)	x	x	-1%	6%	-14%[46.1 µM]	-1%	6%	-19%[46.1 µM]
